# Cruzain noTriton: blocks cruzain activity in detergent-free assay; P25779; 200,000 compounds, 2.3% hits; Potency, µM, for inactives: max response, negative = inhibition, most hits filed as inhibitors; purified cruzain, Z-FR-AMC fluorescence, no detergent; AID 1476; active = well fitted curve in the direction sought with a large enough effect; inconclusive = small, poorly fitted or top-dose-only effect, or another doubt; inactive = no such curve, though single readings can be large; an effect the other way counts as inactive or inconclusive;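 note: plate controls were enzyme without inhibitor for no effect and buffer without enzyme for full effect; nearly all actives have a fitted effect of over 40% in size; top concentration of the series not given in the record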
# Target sequence (P25779 123-467 limits assumed): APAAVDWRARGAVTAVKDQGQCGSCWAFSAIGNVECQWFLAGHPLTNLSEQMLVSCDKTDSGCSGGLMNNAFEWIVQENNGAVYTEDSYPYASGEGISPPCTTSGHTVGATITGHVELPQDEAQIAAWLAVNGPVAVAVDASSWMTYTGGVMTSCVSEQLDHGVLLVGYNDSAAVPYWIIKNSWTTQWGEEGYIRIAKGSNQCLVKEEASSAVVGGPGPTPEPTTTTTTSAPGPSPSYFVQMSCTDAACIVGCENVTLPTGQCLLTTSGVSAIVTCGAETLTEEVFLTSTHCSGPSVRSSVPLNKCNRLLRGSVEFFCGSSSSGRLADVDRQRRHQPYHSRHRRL
#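 Detergent-free condition (0.00005% Triton X-100) in acetate buffer pH 5.5 with DTT. 1.5 nM enzyme and compound were pre-mixed 15 min, then 2 uM Z-FR-AMC substrate added; reaction progress from fluorescence change between first and third reads (60 s).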
# NS1 function inh: influenza NS1 inhibition; S. cerevisiae slowed by influenza A NS1, growth recovery by OD600; Potency, µM (titrated, usually from 46.1 µM), for inactives: at the highest dose activity, positive = more growth; 270,000 compounds, 0.4% hits; AID 2326; note: actives are rising curves; nearly all actives have a fitted effect of over 50% in size
#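 Growth recovery, yeast-based: influenza A NS1 expressed in S. cerevisiae causes slow growth, and suppressors are detected by OD600. The parent strain without NS1 is used as positive control.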
# RE007 growth inh: less growth of the S. pombe RE007 Vpr strain; Potency, µM (highest dose often 92.2 µM), inactives show top-dose activity change, negative = less growth; S. pombe RE007 Vpr strain, BacTiter-Glo ATP luminescence, 24 h; control for the full effect not named in the record; 360,000 compounds, 0.21% hits; active = well fitted falling curve with a large enough effect; inconclusive = small, poorly fitted or top-dose-only effect; inactive = no such curve, though single readings can be large or run the other way;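 note: % is set by controls: 0 for no effect and ±100 for the full control effect; nearly all actives have a fitted effect of over 50% in size; the assay follows cell death caused by Vpr and the record does not say whether a fall means rescue or toxicity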
#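 Fission yeast strain RE007, carrying one chromosomally integrated HIV-1 vpr copy, was seeded at OD 0.01 in PMG+AL medium with 23 nL pinned compound. After 24 h at 30 °C and 99% humidity, viability was read by BacTiter-Glo luminescence.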
# StopGo reporter: lowers the luciferase signal of an FMDV 2A StopGo reporter | human cells with a luciferase reporter of 2A StopGo recoding; control for the full effect not named in the record | 410,000 compounds, 1.2% hits | AID 1159524 | Potency, µM (doses to about 57.9 µM), inactives show at the top dose signal change, negative = less light; active = well fitted falling curve with a large enough effect; inconclusive = small, poorly fitted or top-dose-only effect; inactive = no such curve, though single readings can be large or run the other way; tested in HEK293T cells; note: % is set by controls: 0 for no effect and ±100 for the full control effect; nearly all actives have a fitted effect of over 45% in size; luciferase light after 4 h
# LASV entry inh: blocks Lassa virus binding to or entry into cells; Lassa virus pseudotype entry inhibition, cell reporter; control for the full effect not named in the record; Potency, µM (doses to about 37.9 µM), for inactives: at the top dose activity change, negative = inhibition, hits mostly inhibitors; 300,000 compounds, 1.2% hits; AID 540256; active means well fitted inhibition curve with a large enough effect; inconclusive means small, poorly fitted or top-dose-only effect, or effect the other way; inactive means flat fitted curve, though single readings scatter; tested in HEK293 cells; note: % is set by controls: 0 for no effect and ±100 for the full control effect; nearly all actives have a fitted effect of over 50% in size; luciferase read-out
# Cruzain inh Det: inhibitors of Trypanosoma cruzi cruzain with detergent; 200,000 compounds, 0.43% hits; AID 1478; Potency, µM, for the others: max response, negative = inhibition, actives largely listed as inhibitors; purified cruzain, Z-FR-AMC fluorescence, 0.01% Triton; active = well fitted curve in the direction sought with a large enough effect; inconclusive = small, poorly fitted or top-dose-only effect, or another doubt; inactive = no such curve, though single readings can be large; an effect the other way counts as inactive or inconclusive;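 note: plate controls were neutral wells for no effect and buffer without enzyme for full effect; nearly all actives have a fitted effect of over 40% in size; top concentration of the series not given in the record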
#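 Sodium acetate buffer (100 mM, pH 5.5) containing 5 mM DTT and 0.01% Triton X-100 hosted 1.5 nM cruzain and test compound for 15 min at room temperature. Cleavage of 2 uM Z-FR-AMC was then tracked by fluorescence.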
# Marburg entry inh: Marburg virus entry inhibition | Marburg virus pseudotyped entry inhibition, cell reporter; control for the full effect not named in the record; about a third of the inactives were read at about 46 µM | Potency, µM (series often up to 37.8 µM), without a hit: at the top dose activity change, negative = inhibition, hits mostly inhibitors | 300,000 compounds, 1.8% hits | AID 540276; active = well fitted inhibition curve with a large enough effect; inconclusive = small, poorly fitted or top-dose-only effect, or effect the other way; inactive = flat fitted curve, though single readings scatter; tested in HEK293 cells; about a fifth of its hits are not listed in these tables; note: % is set by controls: 0 for no effect and ±100 for the full control effect; luciferase read-out
# SARS PLpro yeast: SARS-CoV PLP inhibition in yeast | S. cerevisiae expressing SARS-CoV PLpro, growth rescue; control for the full effect not named in the record | Potency, µM (doses to about 32.9 µM), for the others: at the top dose activity, positive = growth rescue | 330,000 compounds, 0.19% hits; note: 0% is about no effect; nearly all actives have a fitted effect of over 55% in size; growth read by luminescence after 48 h
# Starred values were filed as active, the others as inactive; u = inconclusive; x = no result given; & = joins results of further samples; [ ] = remark or other dose. Unless noted, calls come from the whole dose curve; as a rule, active means well fitted rising curve with a large enough effect; inconclusive means small, poorly fitted or top-dose-only effect; inactive means no such curve, though single readings can be large or run the other way. Potency is the fitted concentration of half-maximal effect. Compounds as they come (roughly 4.7% active in at least one column).
Structure | Cruzain noTriton | NS1 function inh | RE007 growth inh | StopGo reporter | LASV entry inh | Cruzain inh Det | Marburg entry inh | SARS PLpro yeast
CC(=O)NC12CC3CC(C1)CC(C(=O)N1CCN(S(=O)(=O)c4cccc(C(F)(F)F)c4)CC1)(C3)C2 | x | x | -7% | 3% | u | x | -13% | 0%
CC(NC(=O)NCc1cccnc1)(C(F)(F)F)C(F)(F)F | 15% | -3% | -9% | u | -7% | 3.2% | 6% | -1%
CSc1nnc(Cn2c(=O)sc3ccccc32)n1C | 6% | -2% | 1% | -6% | x | 0.6% | x | 12%
N/C(=N/S(=O)(=O)c1ccccc1)c1cccc([N+](=O)[O-])c1 | x | -5% | 11% | 3% | -17% | x | -6%[46.1 µM] | 1%
Cc1ccc(C(C)C)c(OC(C)C(=O)NCC2(N(C)C)CCCCC2)c1 (stereo not given) | -12% | x | x | -27% | -1%[46.1 µM] | 4.6% | u | x
Cc1noc(C)c1COC(=O)COc1ccc(-c2ccccc2)cc1 | x | -9% | -1% | 0% | 26% | x | 3%[46.1 µM] | -2%
CCOC(=O)C1CCN(C(=O)C2CCN(c3ncnc4c3nc3n4CCCCC3)CC2)CC1 | x | -14% | -2% | -2% | x | x | x | -3%
COc1ccc(NC(=O)c2nnn(Cc3nc(-c4cc(OC)c(OC)c(OC)c4)oc3C)c2C)cc1Cl | -15% | x | x | 0% | -28%[46.1 µM] | -0.4% | u | x
Cc1ccc(CSC2=Nc3ccccc3C3=NC(CC(=O)NC4CCCCC4)C(=O)N23)c(C)c1 (stereo not given) | 7% | x | x | -31% | -3%[46.1 µM] | 0.1% | x | x
CCCNS(=O)(=O)c1ccc(OCC(=O)NCC2CCCO2)cc1 (stereo not given) | x | -6% | 13% | -4% | -1%[46.1 µM] | x | 12%[46.1 µM] | 1%
CC(c1ccccc1F)n1cc(C(=O)NCCCn2ccnc2)nn1 (stereo not given) | -5% | 11% | 11% | -25% | 2% | -0.1% | 18% | -5%
Cc1cc(C)cc(N(CCC#N)C(=O)COC(=O)c2ccc(OCc3c(C)noc3C)cc2)c1 | x | x | 8% | -5% | -23% | x | u | 0%
CC(C)c1ccc(OCC(=O)Nc2c(C(=O)c3ccc(F)cc3)oc3ccccc23)cc1 | 14% | x | x | -11% | 4%[46.1 µM] | 0.5% | 17%[46.1 µM] | x
COC(=O)c1ccc(NC(=O)CCN2C(=O)CSC2=O)cc1 | x | -2% | 12% | 36%[activator] | 2%[46.1 µM] | x | 1%[46.1 µM] | 0%
O=P(NC(c1ccccc1)c1ccccc1)(Oc1ccccc1)Oc1ccccc1 | -6% | -14% | 7% | -23% | u | -6.4% | u | -1%
COCCNC(=S)N/N=C(\C)CCc1ccc2c(c1)OCO2 | x | x | 6% | -1% | -2%[46.1 µM] | x | 5%[46.1 µM] | 3%
NC(=O)CCN1CCN(S(=O)(=O)/C=C/c2ccccc2)CC1 | x | 9% | -1% | -20% | 14% | x | -6%[46.1 µM] | 0%
COCCNC(=O)C(c1ccc(C)o1)N(Cc1ccco1)C(=O)c1snc(C(N)=O)c1N (stereo not given) | 1% | 2% | 20% | 18% | -3% | -5.1% | 1% | 8%
CCOc1ccc(NC(=O)CSc2nc(C)cc(C)n2)cc1 | 1% | -2% | 9% | -5% | 2% | 1.5% | 12% | -32%
COC(=O)C1=CN(c2ccc(OC)cc2)C=C(C(=O)OC)C1c1ccc([N+](=O)[O-])cc1 | x | -1% | -2% | -14% | u | x | u | 0%

# The last 6 entries of the part above lead into the next.
Structure | Cruzain noTriton | NS1 function inh | RE007 growth inh | StopGo reporter | LASV entry inh | Cruzain inh Det | Marburg entry inh | SARS PLpro yeast
O=P(NC(c1ccccc1)c1ccccc1)(Oc1ccccc1)Oc1ccccc1 | -6% | -14% | 7% | -23% | u | -6.4% | u | -1%
COCCNC(=S)N/N=C(\C)CCc1ccc2c(c1)OCO2 | x | x | 6% | -1% | -2%[46.1 µM] | x | 5%[46.1 µM] | 3%
NC(=O)CCN1CCN(S(=O)(=O)/C=C/c2ccccc2)CC1 | x | 9% | -1% | -20% | 14% | x | -6%[46.1 µM] | 0%
COCCNC(=O)C(c1ccc(C)o1)N(Cc1ccco1)C(=O)c1snc(C(N)=O)c1N (stereo not given) | 1% | 2% | 20% | 18% | -3% | -5.1% | 1% | 8%
CCOc1ccc(NC(=O)CSc2nc(C)cc(C)n2)cc1 | 1% | -2% | 9% | -5% | 2% | 1.5% | 12% | -32%
COC(=O)C1=CN(c2ccc(OC)cc2)C=C(C(=O)OC)C1c1ccc([N+](=O)[O-])cc1 | x | -1% | -2% | -14% | u | x | u | 0%
COC(=O)CSc1nnc(CNS(=O)(=O)c2ccc(Cl)cc2)n1C | -5% | 16% | 21% | -5% | 18% | 4.3% | 4% | 10%
Cc1ccc(C)c(Nc2nc3c(S(=O)(=O)c4ccc(C(C)C)cc4)nnn3c3ccsc23)c1 | -28% | x | x | -7% | u | -6.3% | x | x
Cc1ccc(NC(=O)CCNS(=O)(=O)c2ccc3c(c2)oc(=O)n3C)c(C)c1 | 2% | -1% | -4% | 17% | -23% | -1.2% | -2% | 6%
O=C(NCC1CCCO1)c1ccc2c(=O)n(Cc3cccc(Br)c3)c(=S)[nH]c2c1 (stereo not given) | x | x | -13% | u | -21% | x | 3% | 6%
CCc1ccc(C(=O)NNC(=S)Nc2ccc(S(N)(=O)=O)cc2)s1 | x | x | 28% | 12% | 9% | x | -15%[46.1 µM] | 4%
CCc1ccc(NS(=O)(=O)c2ccc3[nH]cc(C(=O)N4CCCCCC4)c(=O)c3c2)cc1 | 3% | x | x | 17% | 15%[46.1 µM] | -7.5% | 18%[46.1 µM] | x
CCC(CC)C(=O)NCCc1ccc(OC)c(OC)c1 | -3% | 4% | -13% | 3% | -2% | 1.3% | 3% | x
O=c1[nH]c(=S)[nH]c(O)c1C(c1ccccn1)c1c(O)[nH]c(=S)[nH]c1=O | x | x | 0% | -4% | 30%[46.1 µM] | x | 0%[46.1 µM] | 0%
CCOC(=O)C1(CCOc2ccccc2)CCN(Cc2ccc(C#CCCO)cc2)CC1 | x | -6% | 1% | u | x | x | x | 1%
CCCN1CCN(CC2=C(C(=O)OCC)C(c3ccc(Cl)cc3)NC(=O)N2)CC1 (stereo not given) | -6% | x | x | 0% | -15%[46.1 µM] | -0.8% | u | x
COCCSc1nnc(NC(=O)c2ccc3c(c2)OCO3)s1 | x | -2% | -8% | 62%[activator] | x | x | x | 1%
O=C(COc1ccccc1)N=C1SC2CS(=O)(=O)CC2N1Cc1ccccc1 (stereo not given) | x | 3% | -5% | -9% | x | x | x | u
Cc1ccc(-c2cc(C(F)(F)F)c(C#N)c(SCCC#N)n2)o1 | -13% | 1% | -12% | x | -10% | -5.6% | -19% | 4%
COc1ccc(C(=O)Nc2ccc(C(=O)Nc3cccc(C)c3)cc2)cc1 | x | 10% | 1% | 8% | u | x | u | -3%
Cc1onc(-c2ccccc2Cl)c1-c1nc(-c2ccccn2)no1 | -1% | -264% | -2% | -16% | u | -1.6% | u | -38%
CC(C)(C)OC(=O)N[C@@H](Cc1ccccc1)C(=O)N1CCC(C(=O)NCC(=O)O)CC1 | x | 4% | -19% | 9% | u | x | u | 10%
S=C(NCC1CCCO1)NC1CCCCC1 (stereo not given) | x | -41% | 7% | 10% | x | x | x | 0%
COc1ccc(C=O)cc1COc1ccc([N+](=O)[O-])c(C)c1 | x | x | 5% | 0% | 31%[46.1 µM] | x | -23%[46.1 µM] | -9%
CCCCC(=O)Nc1cccc(NC(=S)NC(=O)COc2ccccc2Cl)c1 | -1% | -5% | 10% | 19% | 9% | -11% | u | -9%
C/C(N)=C(/C#N)C(=O)CSc1nnnn1-c1ccccc1 | 4% | 5% | 1% | 8% | 2% | 2.2% | u | 1%
CCCc1[nH]nc2c1C(C1CC=CCC1)C(C#N)=C(N)O2 (stereo not given) | 8% | 7% | -4% | -5% | u | -6.9% | u | 18%
CCOC(=O)c1c(C)[nH]c(CCC(=O)Nc2cc(C)cc(C)c2)c1C | -21% | x | x | -18% | 8%[46.1 µM] | -3.6% | x | x
O=C(OCCN1CCCCC1)c1c[nH]c2ccccc12 | -6%&-6% | 0% | 9%[18.4 µM] | 0%&15%&25% | x | -1.7%&-2.2% | -18%&-18%&-18%&-18%&-18% | x
CCOC(=O)c1cccc(NC(=O)c2ccc3c(c2)OCO3)c1 | x | -82% | 17% | 21% | u | x | -1% | -12%
CCCCn1c(SCC(=O)N2CCOCC2)nnc1-c1ccoc1C | 9% | 2% | 11% | -7% | -8% | 0.2% | 16% | 5%
CC(=O)NS(=O)(=O)c1ccc(Nc2ccc([N+](=O)[O-])c3nonc23)cc1 | x | 0% | -12% | -8% | x | x | x | 0%
O=C(Nc1ccc(Br)cc1)Nn1cnnc1 | x | -8% | -6% | -3% | x | x | x | 0%
Cc1ccc(OCC(=O)N(Cc2cccs2)C2CCS(=O)(=O)C2)cc1C (stereo not given) | x | -7% | -13% | -21% | x | x | x | 1%
COc1cc(CN(C(=O)COc2ccc(Br)cc2)c2ccccn2)cc(OC)c1OC | u | x | x | -7% | -12%[46.1 µM] | -5.1% | 7%[46.1 µM] | x

# Screening results (PubChem)
